High-throughput results as filed in PubChem BioAssay.
GIV-Gai inh = blocks GIV peptide binding to rat Galpha-i3. Galpha-i3/FITC-GIV peptide fluorescence polarization, 90 min; stronger effect = lower value; scaled: aluminum fluoride 0%, vehicle 100%. percent of control (FP), % (test concentration not listed). actives 0.42% (n = 210,000);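 active means replicate mean at 85% of control or lower, very high polarization wells dropped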;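 further: wells of about 15 µL received 100 nL stock; the first replicate is given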
Target sequence (P08753 whole entry, looked up): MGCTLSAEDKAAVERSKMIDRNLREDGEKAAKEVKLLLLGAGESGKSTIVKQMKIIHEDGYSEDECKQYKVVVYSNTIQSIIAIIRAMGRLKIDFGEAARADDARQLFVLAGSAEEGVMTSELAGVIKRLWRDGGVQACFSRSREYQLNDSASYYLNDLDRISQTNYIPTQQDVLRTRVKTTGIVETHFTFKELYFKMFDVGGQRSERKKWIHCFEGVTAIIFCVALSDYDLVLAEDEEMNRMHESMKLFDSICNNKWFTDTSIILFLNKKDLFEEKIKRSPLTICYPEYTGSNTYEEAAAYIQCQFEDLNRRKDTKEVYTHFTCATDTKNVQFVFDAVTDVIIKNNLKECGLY
Active calls of the source: *; & = joins results of further samples.

GIV-Gai inh	compound
104	COc1ccc(C)cc1NC(=O)c1cc(S(=O)(=O)N2CCN(c3cccc(Cl)c3)CC2)ccc1F
106	NC(=O)C1CCN(c2ncnc3c2c(-c2ccccc2)cn3-c2ccc(Br)cc2)CC1
97	COc1cc(OC)cc(-n2nnc(-c3nsc(Nc4ccccc4OC)n3)c2C)c1
101	CC(C)(C)c1nnc2sc(SCC(=O)NC3CCCCC3)nn2c1=O
114	CC1(C)CC(=O)c2c(oc3c(Br)cc(NS(=O)(=O)c4ccc5ccccc5c4)cc23)C1
101	CC1CCN(S(=O)(=O)c2ccc3nn(CCOc4ccc(F)cc4)c(=O)n3c2)CC1
105	O=C(c1cccc(F)c1)N1CCN(Cc2cc(=O)n3nc(-c4cccc(Cl)c4)sc3n2)CC1
102	COc1cc(CN2CCCC2c2cc(C(C)C)on2)ccc1O (centres undefined)
114	CC1(C)CC(=O)C2=C(C1)c1c(ccc3ccccc13)NC2c1cn(Cc2ccccc2)c2ccccc12 (centres undefined)
112	COc1ccc(C2(c3ccccc3F)C=Cc3c(ccc4cc5ccccc5cc34)O2)cc1 (centres undefined)
106	CCC1(C)Cc2ccccc2-c2nc3n(c(=O)c21)CCS3 (centres undefined)
97	CCn1c(CCc2cccc(NS(=O)(=O)c3ccccc3C)c2)nc2ccccc21
112	CCC(=O)N1CCN=C1N1CCC(C)CC1
98	Cn1c(SCC(=O)Nc2ccccc2O)nnc1-c1cc2ccccc2o1
104	OCCNc1nc(Nc2cccc(F)c2)c2cnn(-c3ccccc3)c2n1
110	CC(=O)NC1CC(C)(C)N(O)C(C)(C)C1
106	Cc1ccc(S(=O)(=O)c2cnc(N3CCN(c4cccc(Cl)c4)CC3)nc2N)cc1
109	Cc1ccc(Cl)cc1NC1=NC(=S)N(Cc2c(F)cccc2F)C12CCCCC2
103	O=C(Nc1ccc(Oc2nc3ccccc3n3cnnc23)cc1)c1ccccc1
105	COc1ccc(N2CCN(c3nc(C)nc4sc5c(c34)CCCC5)CC2)cc1
103	O=C1CN(Cc2ccc(Cl)cc2)S(=O)(=O)c2ccccc2N1Cc1ccc(Cl)cc1
102	CCCCCNC(=O)c1ccc(Sc2ccc(NS(=O)(=O)c3cccc(OC)c3)cc2)nc1
103	O=C(NC1CC1)c1ccc(-c2nc(-c3ccccc3)no2)cc1
106	O=C(NCc1nnc(C(=O)Nc2cccc(Cl)c2)s1)c1cc2ccccc2[nH]1
100	CCCCN1CCN(S(=O)(=O)c2cc(-c3nc(C)c(C)s3)cs2)CC1
118	COc1ccc(-n2nc3c(c2NC(=O)c2cc(Br)ccc2Cl)CS(=O)(=O)C3)cc1
105	O=C(CSc1nnc2ccc(C(=O)Nc3cccc(F)c3)cn12)Nc1ccc2c(c1)OCO2
104	O=C(CCc1nc(CSc2nnc(-c3ccccc3)o2)no1)Nc1ccc(Br)cc1
105	CCc1nc(CN2C(=O)COc3ccc(S(=O)(=O)NC4CCCC4)cc32)no1
100	Cc1nnc2ccc(-n3ncc4c3NC(=O)CC4c3ccc(OCc4ccccc4Cl)cc3)nn12 (centres undefined)
106	COc1ccccc1C(NC(=O)c1cccnc1)c1cc(Cl)c2cccnc2c1O (centres undefined)
109	O=C(CSc1nc2cc(C(=O)NCC3CCCO3)ccc2c(=O)n1CC1CCCO1)NCc1ccco1 (centres undefined)
99	Cc1c(CCNC(=O)c2ccc3c(c2)OCO3)sc2nc(-c3ccc(F)cc3)nn12
107	N#CC1=C(N)Oc2n[nH]c(-c3ccc4c(c3)OCO4)c2C12C(=O)N(CC(=O)O)c1ccccc12 (centres undefined)
102	O=C(Cn1cc(-c2nnc(CN3CCCCC3)o2)c2ccccc21)NCCCc1ccccc1
105	CCn1c(C)c(-c2nc(C3CC3)no2)c(S(=O)(=O)N2CCN(C)CC2)c1C
98	Cn1c(=O)n(Cc2ccccn2)c(=O)c2cnc(-c3ccc(Cl)cc3)nc21
106	CCOc1ccc(NC(=O)CSc2nc3ccccc3c(=O)n2Cc2ccc3c(c2)OCO3)cc1
100	CCn1c(=O)c(N2CCN(C(=O)C3CCCC3)CC2)nc2ccccc21
120	CCN(CC)c1ccc(C2Nc3cccc4cccc(c34)N2)c(O)c1
103	O=C(NC1CCCC1)c1ccc2c(=O)n(CC3CCCO3)c(SCc3ccccc3)nc2c1 (centres undefined)
107	CCS(=O)(=O)c1nc2ccc(NS(=O)(=O)c3ccc(OC)cc3)cc2s1
105	CCN(CC)c1ccc(/C=C/C23NC(=O)CCN2c2ccc(C)cc2C3(C)C)cc1 (centres undefined)
107	Cc1ccccc1-n1[nH]c(C)c(C=Nc2ccc([N+](=O)[O-])cc2Cl)c1=O
114	COCCCNC(=O)C(=O)Nc1ccc(C)c(C)c1
108	O=c1nc2n(-c3cccc(C(F)(F)F)c3)c3ccccc3cc-2c(=O)[nH]1
107	CCOC(=O)N1CCN(C(=O)c2sc3ncnc(N4CCN(c5ccccc5)CC4)c3c2C)CC1
104	COc1ccccc1-c1coc2cc(OC(=O)c3cncc(Br)c3)ccc2c1=O
105	O=C(Nc1nc2ccccc2s1)NC1CC(=O)N(c2cccc(F)c2)C1 (centres undefined)
102	CCc1cc(C2CCCN2S(=O)(=O)c2ccc(OC)cc2)on1 (centres undefined)
103	O=S(=O)(c1ccc(F)cc1)N1CCn2cccc2C1c1ccccc1F (centres undefined)
105	Cc1ccc(C)c(S(=O)(=O)NCCc2n[nH]c(Cc3ccc(F)cc3)n2)c1
103	COc1cc(OC)cc(N2C=NS(=O)(=O)c3cccnc32)c1
104	CC1CCc2c(oc3c2cc(NS(=O)(=O)c2ccccc2)c2ccccc23)C1 (centres undefined)
107	COc1cc(/C=C2/SC(=S)N(Cc3ccccc3)C2=O)ccc1Oc1ccc([N+](=O)[O-])cc1[N+](=O)[O-]
104	CN(C)c1cc(N2CCCC(NS(=O)(=O)C3CC3)C2)ncn1 (centres undefined)
123	CC(C)(C)c1cc(C(=O)CN2C3=NCCCN3c3ccccc32)cc(C(C)(C)C)c1O
111	CCOP(=O)(OCC)C(Nc1ccc(Br)cc1)c1ccc(N(C)C)cc1 (centres undefined)
106	CN(C)C(=O)c1cc2c(s1)CCC(C(=O)Nc1ccc3c(c1)OCO3)C2 (centres undefined)
110	CC1=C(C(=O)OCc2ccccc2)C(c2ccc(Cl)cc2)C(C#N)=C(N)O1 (centres undefined)

Additional records
GIV-Gai inh	compound
97	COCCN1CCc2nc(SCc3cc(C)ccc3C)[nH]c(=O)c2C1
108	CC(=O)Nc1cc2c(cc1[N+](=O)[O-])OCCOc1cc([N+](=O)[O-])c(NC(C)=O)cc1OCCOCCO2
114	Cc1cccc(N2C(=O)C3C(c4ccccc4)CCC(c4ccccc4)C3C2=O)c1 (centres undefined)
98	CCc1nnc(-c2coc(S(=O)(=O)N3CCCCC3)c2)o1
108	O=C(c1ccc2c(=O)n(Cc3ccc(Cl)cc3)c(=S)[nH]c2c1)N1CCC(N2CCCCC2)CC1
104	Cc1ccc(C(=O)N/C(=C\c2ccco2)C(=O)N2CCN(c3ccccc3F)CC2)cc1C
102	CC1(c2ccccc2)CC(C)(C)N(C(=O)Nc2ccc(Cl)cc2)c2ccccc21 (centres undefined)
110	O=C(CSc1nc(NCC2CCCO2)c2ccccc2n1)NCc1ccco1 (centres undefined)
103	Cc1sc(-c2ccn[nH]2)cc1NC(=O)C1CCC1
99	CCC(=O)N1c2cc(C)c(C)cc2-c2c(ssc2=S)C1(C)C
102	COCCCNC(=O)CSc1nc2cc(C(=O)NCCOC)ccc2c(=O)n1Cc1ccc2c(c1)OCO2
117	CN(C)C1N(C(=O)c2ccccc2)N=C2c3ccccc3S(=O)(=O)N21 (centres undefined)
106	CCn1nnc2c(NCC3CCCO3)ncnc21 (centres undefined)
111	N=C1S/C(=C\c2ccc(Cl)cc2Cl)C(=O)N1c1nonc1N
102	O=C(c1cc2ccccc2o1)N1CCc2c([nH]c3ccccc23)C1c1ccccc1 (centres undefined)
105	CCC(C)NC(=O)CSc1nnc(-c2cc3ccccc3o2)n1-c1ccccc1 (centres undefined)
100	CCCN1C(=O)c2ccccc2Sc2cc(-c3noc(-c4ccnn4C)n3)ccc21
101	O=C(c1ccc(Br)cc1)N1CCc2c([nH]c3ccccc23)C1c1cccnc1 (centres undefined)
103	O=c1ccn(-c2ccc(Cl)cc2)nc1-c1nc(-c2ccccc2Br)no1
102	CCc1onc(C)c1C1CCCN1C(=O)c1ccco1 (centres undefined)
122&101	COc1ccc2[nH]c3nc4ccccc4nc3c2c1
102	CCSCCOC(=O)C1=C(C)NC2=C(C(=O)CC(c3cccs3)C2)C1c1coc2ccccc2c1=O (centres undefined)
108	Cc1cc(N2CCCC2)nc(N2CCN(C(=O)CCC3CCCCC3)CC2)n1
104	COc1ccc2c(c1)c(Sc1ccccc1)c(CC(=O)Nc1cccc(Cl)c1)n2C
104	CC(=O)Nc1ccc(-n2c(/C=C/c3ccc([N+](=O)[O-])cc3)nc3ccccc3c2=O)cc1
106	Cc1ccc(N2C(=O)c3ccccc3NC2c2ccc(OCc3ccccc3)cc2)cc1 (centres undefined)
113	O=[N+]([O-])c1ccc(Cl)c(S(=O)(=O)N2CCCN(S(=O)(=O)c3cc([N+](=O)[O-])ccc3Cl)CC2)c1
100	Cc1ccc(-c2nc3n(c2CNC(=O)c2ccc(C(C)C)cc2)CCS3)cc1
108	C=CCN1C(=O)CC(C(=O)Nc2ccc(Cl)cc2)SC1=Nc1ccc(C(=O)OCC)cc1 (centres undefined)
102	COc1ccc(NC(=O)Cn2cnc3c(sc4ncccc43)c2=O)cc1Cl

Quoted at random: two compounds from above.
GIV-Gai inh	compound
104	COc1ccc(C)cc1NC(=O)c1cc(S(=O)(=O)N2CCN(c3cccc(Cl)c3)CC2)ccc1F
106	NC(=O)C1CCN(c2ncnc3c2c(-c2ccccc2)cn3-c2ccc(Br)cc2)CC1

Further entries.
GIV-Gai inh	compound
110	O=C(NNc1ccccc1I)C(O)(c1ccccc1)c1ccccc1
99	O=S(=O)(Nc1ccc(-c2nnc(-c3ccccc3)o2)cc1)c1ccccc1
102	CCOC(=O)C1=C(N)OC2=C(C(=O)CCC2)C1c1cc(Br)c(C)s1 (centres undefined)
107	O=C(CSc1nnc(SCC(=O)NCCc2ccccc2)s1)NCCc1ccccc1
105	C=CCOC(=O)C1=C(C)NC(=O)NC1c1cn(-c2ccccc2)nc1-c1ccc(Cl)cc1 (centres undefined)
104	COCCNc1nc(SCC(=O)Nc2cc(C)on2)nc2ccccc12
103	Cc1nc(-c2cc(S(=O)(=O)Nc3ccccc3Cl)c(C)s2)sc1C
102	COc1ccc(-n2nnc3c(N4CCN(C(=O)c5cc(OC)cc(OC)c5)CC4)ncnc32)cc1
100	Cn1nc(-c2nc(-c3ccccc3)no2)c2c1CCN(S(=O)(=O)c1ccccc1)C2
103	O=C(NCc1ccc(-c2nc3ncccc3o2)cc1)C1(c2ccccc2)CCCC1
103	COc1ccc(-c2nc3cnc(Br)cn3c2Nc2ccc3c(c2)OCCO3)cc1
109	Cn1cnc2cc(-c3noc(-c4ccc(Br)o4)n3)ccc21
115	O=C1/C(=C/c2ccc(-c3cc(Cl)ccc3Cl)o2)C=C(c2ccccc2)N1c1ccc(Sc2ccc([N+](=O)[O-])cc2)cc1
105	CC1=CC(C)C2COC(c3ccccc3O)C1C2C (centres undefined)
110	COc1ccc(CNS(=O)(=O)c2cc(-c3nc(C(C)C)cs3)sc2C)cc1
115	Cc1ccc(NC(=O)C(Cc2c[nH]c3ccccc23)NC(=O)OCc2ccccc2)c(C)c1 (centres undefined)
101	CCn1c(=O)c2sc(N3CCCC3)nc2n(CC(=O)Nc2ccc(C(C)C)cc2)c1=O
107	Cc1nn(C)c(C)c1CNc1nc(-c2ccncc2)nc2c1CCC2
111	C#CCOc1cccc(C2CC(=O)Nc3c2c(C)nn3-c2ccc3nnc(C)n3n2)c1 (centres undefined)
102	C=CCN1CCN(C(=O)C2CCN(c3nc(NC(C)=O)c(C(=O)N4CCCC4)s3)CC2)CC1
110	COC(=O)c1ccc2c(=O)n(CCc3ccc(S(N)(=O)=O)cc3)c(SCC(=O)Nc3ccc(C)cc3)nc2c1
104	COc1cccc(NC(=O)c2sc3nc(C)nc(N4CCCCC4C)c3c2C)c1 (centres undefined)
108	CCOC(=O)c1c(CN2CCOCC2)n(C)c2ccc(OS(=O)(=O)c3ccc(C)cc3)cc12
110	CN1C(=O)NC2(O)C(=O)c3ccccc3C12O (centres undefined)

Ordered by formula weight (high to low): part of the list above
GIV-Gai inh	compound
115	O=C1/C(=C/c2ccc(-c3cc(Cl)ccc3Cl)o2)C=C(c2ccccc2)N1c1ccc(Sc2ccc([N+](=O)[O-])cc2)cc1
110	COC(=O)c1ccc2c(=O)n(CCc3ccc(S(N)(=O)=O)cc3)c(SCC(=O)Nc3ccc(C)cc3)nc2c1
102	COc1ccc(-n2nnc3c(N4CCN(C(=O)c5cc(OC)cc(OC)c5)CC4)ncnc32)cc1
102	C=CCN1CCN(C(=O)C2CCN(c3nc(NC(C)=O)c(C(=O)N4CCCC4)s3)CC2)CC1
107	O=C(CSc1nnc(SCC(=O)NCCc2ccccc2)s1)NCCc1ccccc1
103	COc1ccc(-c2nc3cnc(Br)cn3c2Nc2ccc3c(c2)OCCO3)cc1
105	C=CCOC(=O)C1=C(C)NC(=O)NC1c1cn(-c2ccccc2)nc1-c1ccc(Cl)cc1 (centres undefined)
101	CCn1c(=O)c2sc(N3CCCC3)nc2n(CC(=O)Nc2ccc(C(C)C)cc2)c1=O
110	COc1ccc(CNS(=O)(=O)c2cc(-c3nc(C(C)C)cs3)sc2C)cc1
100	Cn1nc(-c2nc(-c3ccccc3)no2)c2c1CCN(S(=O)(=O)c1ccccc1)C2
111	C#CCOc1cccc(C2CC(=O)Nc3c2c(C)nn3-c2ccc3nnc(C)n3n2)c1 (centres undefined)
104	COc1cccc(NC(=O)c2sc3nc(C)nc(N4CCCCC4C)c3c2C)c1 (centres undefined)
103	Cc1nc(-c2cc(S(=O)(=O)Nc3ccccc3Cl)c(C)s2)sc1C
103	O=C(NCc1ccc(-c2nc3ncccc3o2)cc1)C1(c2ccccc2)CCCC1
104	COCCNc1nc(SCC(=O)Nc2cc(C)on2)nc2ccccc12
109	Cn1cnc2cc(-c3noc(-c4ccc(Br)o4)n3)ccc21
107	Cc1nn(C)c(C)c1CNc1nc(-c2ccncc2)nc2c1CCC2
105	CC1=CC(C)C2COC(c3ccccc3O)C1C2C (centres undefined)
110	CN1C(=O)NC2(O)C(=O)c3ccccc3C12O (centres undefined)

Only part of the results is shown. The share of hits here may be higher or lower than overall.
